# Source: PubChem BioAssay
# Env fusion inh = blocks HIV Env-driven cell-cell fusion; 360,000 compounds, 1.1% hits; HeLa-JRFL Env/CEM21 cell fusion, luciferase; inhibition, % at 12.3 µM;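 active means mean replicate inhibition score of at least 50 and every replicate individually at or above 50; inconclusive means only one of the two criteria met; inactive means mean below 50 and not all replicates reaching 50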;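 further: 0% = plate neutral controls and 100% = maraviroc near 300 nM; one replicate is shown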
# PABP FP inh = blocks human PABP binding to poly(A) RNA; P11940; fluorescence polarization; inhibition, % at 35 µM; 290,000 compounds, 1% hits;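 active means 50% or more with normal probe brightness, or confirmed in later tests; inconclusive means above 50% with abnormal brightness, or retests that disagree; inactive means below 50% or failed in later tests; about a fifth of its hits are not listed in these tables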;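 further: calls also rest on retests at 20 µM and on dose response follow-up; controls were probe without protein and protein plus probe with vehicle; some compounds called inactive have numbers as strong as hits; many hits fall short of the cut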
# Target sequence (P11940 whole entry, looked up): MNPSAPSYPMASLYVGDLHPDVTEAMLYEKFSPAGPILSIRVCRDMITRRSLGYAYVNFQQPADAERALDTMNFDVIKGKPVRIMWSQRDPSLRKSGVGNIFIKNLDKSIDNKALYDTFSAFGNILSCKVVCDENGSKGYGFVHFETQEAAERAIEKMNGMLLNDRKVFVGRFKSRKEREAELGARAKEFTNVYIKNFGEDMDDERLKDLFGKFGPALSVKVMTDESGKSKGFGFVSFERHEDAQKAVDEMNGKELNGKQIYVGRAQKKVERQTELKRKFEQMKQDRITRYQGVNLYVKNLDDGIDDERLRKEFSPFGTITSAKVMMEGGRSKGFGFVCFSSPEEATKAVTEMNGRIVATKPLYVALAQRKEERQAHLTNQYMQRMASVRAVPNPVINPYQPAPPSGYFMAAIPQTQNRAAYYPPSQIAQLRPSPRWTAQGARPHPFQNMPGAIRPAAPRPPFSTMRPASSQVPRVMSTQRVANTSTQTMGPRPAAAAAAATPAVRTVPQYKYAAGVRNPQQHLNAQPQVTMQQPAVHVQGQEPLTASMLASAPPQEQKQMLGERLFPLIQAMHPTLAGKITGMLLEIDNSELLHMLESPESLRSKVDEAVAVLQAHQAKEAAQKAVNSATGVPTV
# MT1-MMP act inh = blocks activation of human MT1-MMP | 360,000 compounds, 0.061% hits | P50281 | GFP/RFP ratio change, % at 20 µM | AID 651647 | HT1080 RFP-PRO-GFP cells, GFP/RFP ratio fluorescence, overnight; percent of plate control window, DMSO zero;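 active means GFP/RFP ratio change of at least 30% with cell ATP level not reduced by more than half and red fluorescence within 50% of control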; further: strong numbers were not always called active
#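 system = RFP-PRO-GFP reporter HT1080 cells | dosing = 20 µM single dose, 1% DMSO | timing = overnight cell settling, then overnight compound exposure, 37 °C, 5% CO2 | read-out basis = GFP/RFP fluorescence ratio | controls = DMSO and RFP-L50D-GFP cell wells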
# eIF4H FP inh = inhibitors of RNA binding by human eIF4H; eIF4H fluorescence polarization binding assay; inhibition, % at 35 µM; 290,000 compounds, 0.94% hits;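 active means 50% or more with normal probe brightness, or confirmed in later tests; inconclusive means above 50% with abnormal brightness, or retests that disagree; inactive means below 50% or failed in later tests; about a fifth of its hits are not listed in these tables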;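 further: calls also rest on retests at 20 µM and on dose response follow-up; 0% = protein and probe with vehicle and 100% = probe without protein; strong numbers were not always called active; many hits fall short of the cut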
# CSC inhib = blocks cancer stem cells; cancer stem cell-like cells viability, luminescence; inhibition, % at 7.5 µM; 300,000 compounds, 1.1% hits;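 active means mean at 75% or more and at least half the replicates too; inconclusive means mean and replicates disagree; tested in HMLE shEcad cells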;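 further: 0% = median of negative and 100% = median of positive control wells; the first replicate is given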
# Rce1 inh = inhibitors of yeast Ras-converting enzyme; Q03530; yeast membranes, quenched prenylated peptide cleavage fluorescence; calls only; 290,000 compounds, 0.27% hits; AID 2563;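 active means fall in fluorescence gain of 50% or more versus controls, with final raw signal at or below 3038400; inconclusive means same 50% fall but final raw signal above 3038400; inactive means fall in fluorescence gain under 50%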;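 further: plate controls were neutral control wells for no effect and wells lacking membranes for full effect; tested at 10 µM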
# UUG fidelity = alters start codon recognition fidelity in yeast; S. cerevisiae UUG-firefly luciferase reporter, luminescence/redox ratio; 350,000 compounds, 0.13% hits; activity score, % at 18.7 µM;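 active means replicate mean at a twofold rise or more, about +100% in these data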;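 further: firefly luciferase made from a UUG start codon reports start codon fidelity; reporter light over untreated wells divided by growth signal over untreated wells; some hits fall short of that in this replicate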
# MT1-MMP act inh RFP = recorded beside MT1-MMP act inh, whose call it bears; RFP signal change, %; measured here: RFP expression control read;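 0 = vehicle wells; hits needed this value within 50% of zero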
# Numbers without * were called inactive; i = inactive; ? = inconclusive; . = no result given. Only part of the results is shown (hit frequency here may not be typical).
# Values run as follows: Env fusion inh | PABP FP inh | MT1-MMP act inh | MT1-MMP act inh RFP | eIF4H FP inh | CSC inhib | Rce1 inh | UUG fidelity
> CC(=O)NCCNc1nc2cc(-c3cnn(CCC(C)C)c3)sc2c(=O)n1C
  10 | . | 18 | -4 | . | . | . | -13
> CCC(C)NC(=O)CSC1=Nc2ccccc2C2=NC(c3ccccc3)C(=O)N12 (stereo not given)
  -55 | -5 | -1 | 6 | -5 | 9 | i | -9
> O=C(Nc1ccc2c(c1)C(=O)N(CC1CCCO1)C2=O)c1ccc(Cl)c(Cl)c1 (stereo not given)
  34 | -4 | 0 | -14 | -5 | -8 | i | -6
> Cc1cc(C)n2nc(SCc3nnc(SCc4ccccc4)s3)nc2n1
  . | -1 | 1 | -4 | -9 | -4 | i | -5
> O=C(CCCc1ccccc1)NCCS(=O)(=O)N1CCN(c2ccc(F)cc2)CC1
  5 | . | 1 | -4 | . | -8 | i | -22
> COc1ccccc1NC(=O)C(=O)NCCC1CCCCN1S(=O)(=O)c1ccccc1 (stereo not given)
  12 | . | 0 | -3 | . | 0 | i | -1
> COc1ccc(-c2csc(NCc3ccco3)n2)cc1C
  . | 1 | 12 | 5 | -4 | -4 | i | -13
> O=S(=O)(c1ccc(F)cc1)N1CCCC(c2nc(-c3ccc(F)cc3)no2)C1 (stereo not given)
  4 | . | 2 | -3 | . | 5 | . | 0
> CC(NC(=O)COc1ccc(-c2nnco2)cc1)c1ccc(Cl)cc1Cl (stereo not given)
  22 | -7 | 2 | -5 | -7 | -4 | i | -2
> CN(C)c1ccc(-c2nnn(CC(=O)N3c4ccccc4CCc4ccccc43)n2)cc1
  . | 2 | -6 | -4 | -6 | 11 | i | -9
> Cc1nc2c(ncn2-c2ccccc2)c(=O)n1NC(=O)CN1CCCCC1
  12 | 8 | 0 | 2 | -8 | . | i | .
> O=C(NN=Cc1c(F)c(F)c(F)c(F)c1F)c1ccc(NS(=O)(=O)c2cccs2)cc1
  -5 | . | -3 | 2 | . | 15 | . | -10
> CCCCNC(=S)N/N=C/c1cc(C)ccc1C
  -28 | -4 | 0 | -2 | 0 | -16 | i | .
> COc1cc(C(c2c(NC(=O)c3ccco3)sc(C)c2C)N2CCOCC2)cc(OC)c1OC (stereo not given)
  -3 | . | -7 | -5 | . | . | . | 38
> N=c1sccn1CC(=O)NCCc1ccc(Cl)cc1Cl
  . | -2 | -2 | 5 | -12 | -4 | . | -25
> O=C(Nc1ccccc1Cl)NC1(C(=O)N2CCOCC2)CCCCC1
  0 | -1 | -2 | 6 | -10 | -9 | . | -14
> C/C(=N\NC(=O)Cn1c(-c2ccccn2)nc2ccccc21)c1cccc(O)c1
  3 | 0 | -2 | 2 | -2 | 0 | . | .
> O=C(CN(C(=O)c1ccc(Cl)cc1)N1C(=O)C2CCCCC2C1=O)c1ccc(Cl)cc1 (stereo not given)
  -65 | -5 | 6 | 0 | -9 | -13 | i | -6
> CS(=O)(=O)c1ccc(NCC2CCCO2)c([N+](=O)[O-])c1 (stereo not given)
  -36 | -2 | 1 | 2 | -1 | . | i | -15
> Cc1ccc(-c2csc(N/N=C/c3ccco3)n2)cc1
  -52 | -5 | -9 | -7 | 1 | 7 | i | -32
> COc1ccc(-n2c(N)cc(=O)nc2SCC(=O)N2CCN(c3ccccc3)CC2)cc1
  ? | 3 | 0 | 0 | -6 | 5 | i | 4
> COc1cc(N/N=C(\C)c2ccc(N)cc2)nc(-c2ccccc2)n1
  20 | -10 | -2 | -3 | -12 | -8 | i | .
> CCOc1cc2[nH]c(=S)n(CCN3CCC(C)CC3)c(=O)c2cc1OCC
  -26 | -9 | 2 | 0 | -7 | -1 | i | -6
> CC(=O)N1CCOc2ccc(S(=O)(=O)N3CCCC(C)C3)cc21 (stereo not given)
  4 | -4 | 0 | -3 | -10 | 14 | i | -1
> Nc1nc(CSc2nnnn2-c2ccc(Cl)cc2)nc(N2CCOCC2)n1
  . | 5 | 4 | 2 | -7 | -6 | i | .
> COc1cccc(C(CC(=O)O)NS(=O)(=O)c2ccc3c(c2)N(C(C)=O)CC(C)O3)c1 (stereo not given)
  -1 | 9 | 6 | 2 | -1 | 5 | i | 1
> CCCN(CC(=O)Nc1ccccc1C)C(=O)c1ccc(COc2ccccc2)cc1
  3 | -8 | 2 | -10 | -1 | 0 | i | 13
> COC(=O)CCCC1=CC2=C(c3ccccc3)C(=O)C(C)(OC(=O)C3CCCC3)C(=O)C2=CN1CC(C)C (stereo not given)
  -39 | 20 | -6 | 0 | 15 | 4 | i | -5
> CCNC(=S)N1CCC(Cc2ccccc2)CC1
  -12 | 10 | 1 | 1 | 9 | -4 | i | -20
> COc1cccc(-c2cnc3cccnn23)c1
  32 | . | -9 | -6 | . | . | . | -13
> CCCCOc1cccc(C2/C(=C(\O)c3ccc4c(c3)OCCO4)C(=O)C(=O)N2CCN2CCOCC2)c1 (stereo not given)
  19 | -2 | -3 | -4 | -4 | -4 | i | 1
> CC1(C)NC(=O)N(CC(O)COc2cc3ccccc3cc2C(=O)N2CCCCC2)C1=O (stereo not given)
  . | -8 | 1 | 2 | -11 | -13 | i | .
> CCOc1ccc(NS(=O)(=O)c2ccc(C(=O)NCCN3CCOCC3)cc2)cc1
  0 | . | 0 | 7 | . | . | i | -4
> Cc1ccc(OCC(=O)N2CCCCCCC2)cc1C
  -37 | -2 | 3 | 5 | -8 | -5 | i | 0
> COc1ccc(CC(=O)NNS(=O)(=O)c2ccc(F)cc2)cc1OC
  2 | -9 | 0 | -2 | -11 | -13 | i | -11
> C/C(=N\NC(=O)CNc1ccc(F)cc1)c1cc2ccccc2o1
  -8 | -5 | 5 | -2 | 2 | -13 | i | .
> CCOc1ccc(NC(=O)CSc2nnc(-c3ccccn3)n2C)cc1
  0 | 4 | 1 | 3 | 8 | 6 | i | -2
> COC(=O)c1ccc(N/N=C/c2cc([N+](=O)[O-])cc(OC)c2O)cc1
  1 | 4 | 7 | 1 | -7 | 14 | i | -9
> O=C(Nc1ccccc1)N(Cc1ccc(Cl)cc1)CC(O)C(F)(F)F (stereo not given)
  . | -11 | 7 | 2 | -3 | 7 | i | -11
> O=C(CN1C(=O)C2CC=CCC2C1=O)N1CCN(c2ccc([N+](=O)[O-])cc2)CC1 (stereo not given)
  6 | -9 | 2 | -10 | -7 | -3 | i | -5
> COc1ccc(S(=O)(=O)NCc2cccnc2)cc1NC(=O)c1ccccc1
  4 | 5 | -1 | 0 | -11 | 7 | . | -11
> CC1=C(C(=O)OC(C)(C)C)C(c2ccc3ccccc3c2)NC(=O)N1C (stereo not given)
  29 | -1 | -6 | -8 | 5 | . | i | 0
> COc1ccc(Cc2nnc(NC(=O)c3ccco3)s2)cc1
  -30 | 0 | 6 | 10 | 0 | . | i | -11
> O=C(COc1ccc(-n2cnnn2)cc1)NC(=O)NCc1ccccc1
  -12 | -7 | 2 | 1 | 1 | 13 | i | -5
> N#Cc1nc(COc2ccc(F)cc2)oc1N1CCCCC1
  -19 | -12 | -2 | 4 | -6 | 10 | i | .

# Part of the list above, with tabs:
mol	Env fusion inh	PABP FP inh	MT1-MMP act inh	MT1-MMP act inh RFP	eIF4H FP inh	CSC inhib	Rce1 inh	UUG fidelity
O=C(NN=Cc1c(F)c(F)c(F)c(F)c1F)c1ccc(NS(=O)(=O)c2cccs2)cc1	-5	.	-3	2	.	15	.	-10
CCCCNC(=S)N/N=C/c1cc(C)ccc1C	-28	-4	0	-2	0	-16	i	.
COc1cc(C(c2c(NC(=O)c3ccco3)sc(C)c2C)N2CCOCC2)cc(OC)c1OC (stereo not given)	-3	.	-7	-5	.	.	.	38
N=c1sccn1CC(=O)NCCc1ccc(Cl)cc1Cl	.	-2	-2	5	-12	-4	.	-25
O=C(Nc1ccccc1Cl)NC1(C(=O)N2CCOCC2)CCCCC1	0	-1	-2	6	-10	-9	.	-14
C/C(=N\NC(=O)Cn1c(-c2ccccn2)nc2ccccc21)c1cccc(O)c1	3	0	-2	2	-2	0	.	.
O=C(CN(C(=O)c1ccc(Cl)cc1)N1C(=O)C2CCCCC2C1=O)c1ccc(Cl)cc1 (stereo not given)	-65	-5	6	0	-9	-13	i	-6
CS(=O)(=O)c1ccc(NCC2CCCO2)c([N+](=O)[O-])c1 (stereo not given)	-36	-2	1	2	-1	.	i	-15
Cc1ccc(-c2csc(N/N=C/c3ccco3)n2)cc1	-52	-5	-9	-7	1	7	i	-32
COc1ccc(-n2c(N)cc(=O)nc2SCC(=O)N2CCN(c3ccccc3)CC2)cc1	?	3	0	0	-6	5	i	4
COc1cc(N/N=C(\C)c2ccc(N)cc2)nc(-c2ccccc2)n1	20	-10	-2	-3	-12	-8	i	.
CCOc1cc2[nH]c(=S)n(CCN3CCC(C)CC3)c(=O)c2cc1OCC	-26	-9	2	0	-7	-1	i	-6
CC(=O)N1CCOc2ccc(S(=O)(=O)N3CCCC(C)C3)cc21 (stereo not given)	4	-4	0	-3	-10	14	i	-1
Nc1nc(CSc2nnnn2-c2ccc(Cl)cc2)nc(N2CCOCC2)n1	.	5	4	2	-7	-6	i	.
COc1cccc(C(CC(=O)O)NS(=O)(=O)c2ccc3c(c2)N(C(C)=O)CC(C)O3)c1 (stereo not given)	-1	9	6	2	-1	5	i	1
CCCN(CC(=O)Nc1ccccc1C)C(=O)c1ccc(COc2ccccc2)cc1	3	-8	2	-10	-1	0	i	13
COC(=O)CCCC1=CC2=C(c3ccccc3)C(=O)C(C)(OC(=O)C3CCCC3)C(=O)C2=CN1CC(C)C (stereo not given)	-39	20	-6	0	15	4	i	-5
CCNC(=S)N1CCC(Cc2ccccc2)CC1	-12	10	1	1	9	-4	i	-20

# (list continues)
# Screens by letter: A = Env fusion inh; B = PABP FP inh; C = MT1-MMP act inh; D = MT1-MMP act inh RFP; E = eIF4H FP inh; F = CSC inhib; G = Rce1 inh; H = UUG fidelity
O=C1Nc2cc(Cl)c(Cl)cc2N(O)N1c1cc(Cl)cc(Cl)c1
  A: . | B: 17 | C: 1 | D: -1 | E: -1 | F: 17 | G: i | H: -18
COc1cccc(CN(C)C(=O)c2ccc(OCC(=O)Nc3cccc(C(F)(F)F)c3)c(OC)c2)c1
  A: 15 | B: . | C: 12 | D: -26 | E: . | F: 26 | G: i | H: -25
CN(c1ccccc1C(=O)Nc1ccccc1-c1ccccc1)S(C)(=O)=O
  A: 19 | B: 2 | C: -5 | D: 2 | E: -8 | F: -20 | G: i | H: 4
Cc1ccc(C)c(OCC(=O)Nc2ccc3c(c2)OCO3)c1
  A: . | B: 14 | C: 3 | D: -8 | E: -4 | F: 3 | G: i | H: .
COc1ccc(N2CCN(C(c3cccs3)C(C)NS(=O)(=O)c3ccccc3)CC2)cc1 (stereo not given)
  A: 36 | B: 1 | C: 11 | D: -17 | E: 0 | F: . | G: i | H: 8
CCOC(=O)c1ccccc1NC(=O)CSc1nnc(COc2ccccc2C)n1C
  A: 36 | B: -18 | C: 2 | D: 3 | E: 0 | F: -1 | G: i | H: -6
CCN(Cc1ccccc1)C(=O)c1cccc(OC2CCN(C(=O)C3CC3)CC2)c1
  A: 4 | B: 3 | C: -1 | D: -8 | E: 4 | F: -11 | G: i | H: 6
COc1cccc(Cn2cnc3c(NS(=O)(=O)c4ccc(Cl)cc4Cl)c(C)c(C)cc32)c1
  A: -166 | B: 4 | C: -2 | D: -1 | E: 5 | F: 14 | G: i | H: -12
